Source: PubChem BioAssay (National Center for Advancing Translational Sciences (NCATS))
RE007 growth inh = less growth of the S. pombe RE007 Vpr strain; S. pombe RE007 Vpr strain, BacTiter-Glo ATP luminescence, 24 h; control for the full effect not named in the record; Potency, µM (series often up to 92.2 µM), for inactives: at the highest dose activity change, negative = less growth; hit rate 0.21% among 360,000; active = well fitted falling curve with a large enough effect; inconclusive = small, poorly fitted or top-dose-only effect; inactive = no such curve, though single readings can be large or run the other way;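 also: % is scaled to controls: 0 for no effect and ±100 for the full control effect; nearly all actives have a fitted effect of over 50% in size; the assay follows cell death caused by Vpr and the record does not say whether a fall means rescue or toxicity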
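Fission yeast RE007 carrying one integrated HIV-1 vpr copy, seeded at OD 0.01 in PMG+AL medium with 23 nL pinned compound. Grown 24 h at 30 degrees; viability read by BacTiter-Glo luminescence after 5 min.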
SARS PLpro yeast = blocks SARS-CoV papain-like protease in a yeast assay. S. cerevisiae expressing SARS-CoV PLpro, growth rescue; control for the full effect not named in the record. hit rate 0.19% among 330,000. Potency, µM (highest dose often 32.9 µM), without a hit: top-dose activity, positive = growth rescue; active means well fitted rising curve with a large enough effect; inconclusive means small, poorly fitted or top-dose-only effect; inactive means no such curve, though single readings can be large or run the other way; also: 0% is about no effect; nearly all actives have a fitted effect of over 55% in size; growth read by luminescence after 48 h
Marburg entry inh = blocks Marburg virus binding to or entry into cells | Marburg virus pseudotyped entry inhibition, cell reporter; control for the full effect not named in the record; about a third of the inactives were read at about 46 µM | Potency, µM (doses to about 37.8 µM), inactives show at the top dose activity change, negative = inhibition, most hits filed as inhibitors | hit rate 1.8% among 300,000; active = well fitted inhibition curve with a large enough effect; inconclusive = small, poorly fitted or top-dose-only effect, or effect the other way; inactive = flat fitted curve, though single readings scatter; tested in HEK293 cells; about a fifth of its hits are not listed in these tables; also: % is scaled to controls: 0 for no effect and ±100 for the full control effect; luciferase read-out
Lassa entry inh = blocks Lassa virus binding to or entry into cells; Lassa virus pseudotype entry inhibition, cell reporter; control for the full effect not named in the record; Potency, µM (doses to about 37.9 µM), for inactives: top-dose activity change, negative = inhibition, hits mostly inhibitors; hit rate 1.2% among 300,000; active means well fitted inhibition curve with a large enough effect; inconclusive means small, poorly fitted or top-dose-only effect, or effect the other way; inactive means flat fitted curve, though single readings scatter; tested in HEK293 cells; also: % is scaled to controls: 0 for no effect and ±100 for the full control effect; nearly all actives have a fitted effect of over 50% in size; luciferase read-out
2A StopGo = FMDV 2A StopGo reporter, luciferase signal | human cells with a luciferase reporter of 2A StopGo recoding; control for the full effect not named in the record | AID 1159524 | Potency, µM (top dose mostly 57.9 µM), for the others: top-dose signal change, negative = less light | hit rate 1.2% among 410,000; active = well fitted falling curve with a large enough effect; inconclusive = small, poorly fitted or top-dose-only effect; inactive = no such curve, though single readings can be large or run the other way; tested in HEK293T cells; also: % is scaled to controls: 0 for no effect and ±100 for the full control effect; nearly all actives have a fitted effect of over 45% in size; luciferase light after 4 h
Numbers without * were called inactive; ? = inconclusive; . = no result given; & = joins results of further samples; [ ] = dose if it differs, or a comment. Potency is read from the fitted curve at half-maximal effect. Not all compounds are listed; rates above refer to the full screens.

Every second line gives: Marburg entry inh	Lassa entry inh	SARS PLpro yeast	RE007 growth inh	2A StopGo
1) Cc1ccc(C)c(NC(=O)CC2NCCNC2=O)c1 (stereo not drawn)
    -2%[46.1 µM]	?	.	.	-7%
2) CCCN1C(=O)C(NC(=O)c2ccccc2OC)(C(F)(F)F)C(C(=O)OC)=C1C (stereo not drawn)
    ?	-7%[46.1 µM]	.	.	-17%
3) COc1ccc(Cn2nc3n(c2=O)-c2ccccc2OC3)cc1
    ?	6%[46.1 µM]	.	.	38%[activator]
4) CCOC(=O)c1c(NC(=O)C(C)Sc2cn(CCNC(=O)c3ccc(OC)c(OC)c3)c3ccccc23)sc2c1CCC2 (stereo not drawn)
    ?	2%[46.1 µM]	.	.	-18%
5) COc1ccc(-c2cc(-c3ccccc3)nc3c2COc2ccc(Cl)cc2-3)cc1
    3%[46.1 µM]	2%[46.1 µM]	.	.	-22%
6) Nc1ncnc2n[nH]c(Nc3ccc(F)cc3)c12
    -11%&-11%&-11%	2%	.	.	-23%
7) Cc1cc(O)c(C(=O)c2cnc3c(c2)COc2ccccc2-3)cc1Cl
    -4%[46.1 µM]	-9%[46.1 µM]	.	.	3%
8) CCN1CCOC(=O)C1CC(=O)Nc1ccc(C)c(Cl)c1 (stereo not drawn)
    0%[46.1 µM]	-1%[46.1 µM]	.	.	-16%
9) CCN1CCOC(=O)C1CC(=O)Nc1ccccc1C(F)(F)F (stereo not drawn)
    -12%[46.1 µM]	7%[46.1 µM]	.	.	-15%
10) CCn1c(=NC(=O)c2ccc(S(=O)(=O)N3CCCC3)cc2)sc2cc(Br)ccc21
    6%[46.1 µM]	20%[46.1 µM]	.	.	-11%
11) c1ccc(-c2cc(-c3ccccc3)c3c(n2)-c2ccccc2OC3)cc1
    -26%[46.1 µM]	-1%[46.1 µM]	.	.	10%
12) Nc1cc(=O)nc(SCC(=O)Nc2ccc(F)cc2)n1-c1cccc(Cl)c1
    ?	-2%[46.1 µM]	.	.	-7%
13) Nc1cc(=O)nc(SCC(=O)Nc2ccc(F)cc2)n1-c1ccccc1Cl
    ?	0%[46.1 µM]	.	.	-16%
14) CC(=O)Nc1ccc(S(=O)(=O)NC2=NCN(CCO)CN2)cc1
    -5%[46.1 µM]	15%[46.1 µM]	.	.	-13%
15) COc1cccc2sc(=NC(=O)c3ccc(S(=O)(=O)N4CCCCC4)cc3)n(C)c12
    6%[46.1 µM]	12%[46.1 µM]	.	.	32%[activator]
16) CCN1CCOC(=O)C1CC(=O)Nc1cc(Cl)ccc1C (stereo not drawn)
    -12%[46.1 µM]	9%[46.1 µM]	.	.	-10%
17) Cc1cc(N2CCCCC2)nc2ccc(NC(=O)c3ccc(F)cc3)cc12
    -18%[46.1 µM]	0%[46.1 µM]	.	.	?
18) Cc1ccc(-c2cc(-c3ccc4c(c3)NC(=O)CO4)nc3c2COc2ccc(C)cc2-3)cc1
    -7%[46.1 µM]	-4%[46.1 µM]	.	.	7%
19) Cc1nn2c(-c3ccco3)ccnc2c1-c1ccc(F)cc1
    ?	-1%[46.1 µM]	.	.	68%[activator]
20) Fc1ccc(-c2cc(-c3ccc(F)cc3)c3c(n2)-c2cc(F)ccc2OC3)cc1
    16%[46.1 µM]	2%[46.1 µM]	.	.	-8%
21) Cc1ccc(Cn2nc3n(c2=O)-c2cc(Cl)ccc2OC3)cc1
    12%[46.1 µM]	6%[46.1 µM]	.	.	-19%
22) CCOC(=O)c1c(NC(=O)CSc2cn(CCNC(=O)c3ccccc3OC)c3ccccc23)sc2c1CCCC2
    ?	-2%[46.1 µM]	.	.	-28%
23) CCOC(=O)c1cnc2cc(C(F)(F)F)ccc2c1Nc1cc(C)ccc1OC
    -5%[46.1 µM]	8%[46.1 µM]	.	.	?
24) Fc1ccc(-c2cc(-c3ccccc3)c3c(n2)-c2ccccc2OC3)cc1
    -2%[46.1 µM]	3%[46.1 µM]	.	.	-11%
25) COc1ccc(CNC(=O)COC(=O)[C@H](Cc2ccccc2)NC(=O)c2cccs2)cc1
    .	.	1%	8%	-2%
26) C[C@H](CO)N1C[C@H](C)[C@@H](CN(C)C(=O)Nc2ccccc2)Oc2c(NC(=O)Nc3ccccc3)cccc2C1=O
    .	.	1%	2%	29%
27) Nc1nc(COC(=O)CCC(=O)c2ccc(Cl)cc2)nc(Nc2ccccc2)n1
    .	.	2%	-2%	?
28) CCOC(=O)[C@H]1[C@H]2COc3ccc(Br)cc3[C@@H]2N2C(=O)CN(Cc3ccccc3)C(=O)[C@@]12C
    .	.	10%	11%	-17%
29) CCCCn1c(N)c(N(CCC(C)C)C(=O)COC(=O)c2cccnc2Cl)c(=O)[nH]c1=O
    .	.	1%	3%	-18%
30) CCOC(=O)[C@@H](C)NS(=O)(=O)N(Cc1ccccc1)[C@H](C(=O)OC)C(C)C
    .	.	3%	2%	-8%
31) CCC1(CC)NC(=O)N(CC(=O)Nc2ccc(-n3cnnn3)cc2)C1=O
    .	.	5%	11%	-18%
32) O=C(N[C@@H](CCC/[N+]([O-])=C/c1ccccc1)C(=O)O)OCc1ccccc1
    .	.	6%	-3%	-7%
33) CC1CN(C(=O)c2cccc(S(=O)(=O)Nc3ccc(Cl)cc3)c2)CC(C)O1 (stereo not drawn)
    .	.	0%	-3%	34%[activator]
34) O=C(COC(=O)c1ccco1)NC(c1ccccc1)c1ccccc1
    .	.	6%	-1%	-2%
35) CC(=O)c1c(C)[nH]c(C(=O)OCC(=O)Nc2c(C)cccc2C)c1C
    .	.	-1%	-20%	?
36) C=CC[C@@H](CC(=O)N(CCO)Cc1ccccc1)C(=O)NC[C@H](OC(=O)[C@@H](CC=C)CC(=O)OC(C)(C)C)c1ccccc1
    .	.	4%	11%	?
37) Cc1cc2nc(N=C(N)N)nc(C)c2cc1C
    .	.	-1%	10%	?
38) Cc1ccc([C@@H]2CC=C(C(=O)O)[C@H](c3ccccc3F)N2S(=O)(=O)c2ccc(C)cc2)cc1
    .	.	2%	-4%	-24%
39) COc1ccc(Cl)cc1NC(=O)CN(C)C(=O)Cn1[nH]c(=O)c2ccccc2c1=O
    .	.	-4%	0%	-16%
40) CC(C)(C)NC(=O)CN(C(=O)CS(=O)CC(=O)Nc1ccc(F)cc1)c1ccc2c(c1)OCCO2 (stereo not drawn)
    .	.	1%	-1%	10%
41) CN(C)CCOc1ccc(-c2c(-c3ccsc3)sc3ccccc23)cc1
    .	.	-7%	-1%	?
42) CC(OC(=O)/C=C/c1cccs1)C(=O)Nc1ccc(C(N)=O)cc1 (stereo not drawn)
    .	.	-3%	2%	-13%
43) COc1cc(/C=N/Nc2cccc3cccnc23)cc(OC)c1O
    .	.	-5%	-6%	-10%
44) CC(C)(C)OC(=O)C[C@@H]1C/C=C\C[C@@H](CC(=O)N(CCO)Cc2ccccc2)C(=O)N2CCC[C@@H]2COC1=O
    .	.	-1%	-14%	-14%
45) C#CCOCCOCCOCCNc1nc(N2CCN(C(=O)[C@H]([C@@H](C)CC)n3cc(CCCCN)nn3)CC2)nc(N2CCN(C(=O)[C@H](CCCCN)n3cc(CCC(=O)O)nn3)CC2)n1
    .	.	5%	7%	-4%
46) Cc1ccc(/C=N/NC(=O)c2nnn(-c3nonc3N)c2CSc2ccc(Cl)cc2)cc1
    .	.	-3%	-6%	0%
47) COc1ccc(/C=C/C(=O)OCC(=O)NC2CCCC(C)C2C)c(OC)c1 (stereo not drawn)
    .	.	3%	3%	-15%
48) CC(=O)C[C@H](O)CC(=O)[C@@H]1OC(=O)[C@H](C)C/C=C\Cc2ccccc21
    .	.	4%	-19%	-20%
49) O=C(Nc1cccc(S(=O)(=O)N2CCCCC2)c1)c1ccco1
    .	.	-1%	-21%	-3%
50) CC1O[C@@H]2O[C@](O[C@H](C)CC[C@@H](C)O)(c3ccccc3)O[C@@H]2C[C@H]1O (stereo partly drawn)
    .	.	-1%	8%	-5%
51) CC(C)CN(C(=O)C1=NN(c2ccccc2)C(=O)CC1)c1c(N)n(Cc2ccccc2)c(=O)[nH]c1=O
    .	.	11%	-11%	-8%
52) COC(=O)C1=C(c2ccc(-c3ccccc3)c(F)c2)C[C@@H]2CC[C@H]1N2C(=O)NCc1ccco1
    .	.	-4%	7%	?
53) Cc1noc(C)c1C(=O)OCC(=O)Nc1ccc(N2CCOCC2)cc1
    .	.	1%	16%	-17%
54) CCN(CC(=O)Nc1ccc(OC)cc1)C(=O)c1ccc(N2C(=O)CCC2=O)cc1
    .	.	-1%	-7%	-13%
55) CC(C)(C)OC(=O)C[C@@H]1C/C=C\C[C@H](CC(=O)N(CCO)Cc2ccccc2)C(=O)N[C@@H](c2ccccc2)COC1=O
    .	.	1%	3%	-12%
56) CC(C)(C)C(=O)N1N=C(c2cccc(NS(C)(=O)=O)c2)CC1c1cccs1 (stereo not drawn)
    .	.	1%	3%	-15%
57) O=C1CCc2cc(S(=O)(=O)Nc3ccccc3Cl)ccc2N1
    .	.	1%	-4%	-7%
58) O=C(COC(=O)c1ccc(Cl)nc1)Nc1ccc2c(c1)CCC2
    .	.	4%	-4%	2%
59) CC1CCN(C(=O)CN2C(=O)C(=O)N(C(C)C)C2=O)c2ccccc2S1 (stereo not drawn)
    .	.	7%	2%	-6%
60) Cn1c(N)c(C(=O)CSc2nc(C3CC3)n(-c3ccccc3)n2)c(=O)n(C)c1=O
    .	.	-2%	0%	1%

Single records, from the list above:
`CN(C)CCOc1ccc(-c2c(-c3ccsc3)sc3ccccc23)cc1` is listed as Marburg entry inh: .; Lassa entry inh: .; SARS PLpro yeast: -7%; RE007 growth inh: -1%; 2A StopGo: ?
`CC(C)(C)C(=O)N1N=C(c2cccc(NS(C)(=O)=O)c2)CC1c1cccs1` (stereo not drawn) is listed as Marburg entry inh: .; Lassa entry inh: .; SARS PLpro yeast: 1%; RE007 growth inh: 3%; 2A StopGo: -15%

Next part
Every second line gives: Marburg entry inh	Lassa entry inh	SARS PLpro yeast	RE007 growth inh	2A StopGo
61) Cc1nn(CSc2c(F)c(F)c(F)c(F)c2F)c(C)c1[N+](=O)[O-]
    .	.	-4%	-15%	-16%
62) Cc1ccc(NC(=S)NCCN(C2CCCCC2)C2CCCC2)cc1
    .	.	-2%	-1%	14%
63) Cc1cc(C(=O)COC(=O)COc2ccccc2C#N)c(C)n1CC1CCCO1 (stereo not drawn)
    .	.	-1%	0%	?
64) Cc1ccc(CNC(=O)COC(=O)c2cc(C)oc2C)cc1
    .	.	-1%	-13%	1%
65) C=CCN1c2ccc(Br)cc2C(=O)CS1(=O)=O
    .	.	2%	1%	-19%
66) Cc1ccc(S(=O)(=O)N2C[C@@H]3[C@H]4CC[C@H](C4)[C@@H]3[C@@H](C)[C@@H]2c2ccco2)cc1
    .	.	-52%	-16%	0%
67) CCOc1ncccc1C(=O)Nc1cccc(S(=O)(=O)N2CCOCC2)c1
    .	.	2%	-3%	-18%
68) O=C(COC(=O)CCN1C(=O)C2CC=CCC2C1=O)NCCc1ccc(F)cc1 (stereo not drawn)
    .	.	-6%	-7%	-3%
69) N#C/C(=C\c1ccc(OCC(N)=O)cc1)S(=O)(=O)c1ccccc1
    .	.	0%	-21%	0%

Random excerpt: 3 compounds from above.
Every second line gives: Marburg entry inh	Lassa entry inh	SARS PLpro yeast	RE007 growth inh	2A StopGo
16) CCN1CCOC(=O)C1CC(=O)Nc1cc(Cl)ccc1C (stereo not drawn)
    -12%[46.1 µM]	9%[46.1 µM]	.	.	-10%
19) Cc1nn2c(-c3ccco3)ccnc2c1-c1ccc(F)cc1
    ?	-1%[46.1 µM]	.	.	68%[activator]
14) CC(=O)Nc1ccc(S(=O)(=O)NC2=NCN(CCO)CN2)cc1
    -5%[46.1 µM]	15%[46.1 µM]	.	.	-13%
